Cruzain Triton: qHTS Assay for Promiscuous and Specific Inhibitors of Cruzain (with detergent) | Potency, µM, for inactives: max response, negative = inhibition, usual class: inhibitors | purified cruzain, Z-FR-AMC fluorescence, 0.01% Triton | actives 0.43% (n = 200,000); active = well fitted curve in the direction sought with a large enough effect; inconclusive = small, poorly fitted or top-dose-only effect, or another doubt; inactive = no such curve, though single readings can be large; an effect the other way counts as inactive or inconclusive;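 also: plate controls were neutral wells for no effect and buffer without enzyme for full effect; nearly all actives have a fitted effect of over 40% in size; top concentration of the series not given in the record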
Target sequence (P25779 123-467 limits assumed): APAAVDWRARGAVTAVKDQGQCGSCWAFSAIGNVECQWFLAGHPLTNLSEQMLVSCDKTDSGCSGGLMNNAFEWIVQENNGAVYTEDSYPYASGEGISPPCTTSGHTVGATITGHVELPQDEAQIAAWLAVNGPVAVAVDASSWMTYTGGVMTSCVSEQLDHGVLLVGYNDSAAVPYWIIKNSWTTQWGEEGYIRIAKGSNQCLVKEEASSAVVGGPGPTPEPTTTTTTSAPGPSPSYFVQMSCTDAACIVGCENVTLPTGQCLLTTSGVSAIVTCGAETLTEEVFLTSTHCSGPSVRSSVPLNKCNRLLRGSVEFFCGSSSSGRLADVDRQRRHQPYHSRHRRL
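Z-FR-AMC hydrolysis (2 uM substrate) by cruzain (1.5 nM) monitored kinetically at ex 360/em 450 nm after 15 min room-temperature compound exposure; 0.01% Triton X-100, pH 5.5, 5 mM DTT.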
SARS PLpro yeast: qHTS of Yeast-based Assay for SARS-CoV PLP. S. cerevisiae expressing SARS-CoV PLpro, growth rescue; control for the full effect not named in the record. Potency, µM (highest dose often 32.9 µM), inactives show at the highest dose activity, positive = growth rescue. actives 0.19% (n = 330,000). AID 485353, 2010; also: 0% is about no effect; nearly all actives have a fitted effect of over 55% in size; growth read by luminescence after 48 h
StopGo reporter: High Throughput Screening for Foot and Mouth Disease Virus Antivirals | human cells with a luciferase reporter of 2A StopGo recoding; control for the full effect not named in the record | Potency, µM (doses to about 57.9 µM), inactives show at the top dose signal change, negative = less light | actives 1.2% (n = 410,000); active = well fitted falling curve with a large enough effect; inconclusive = small, poorly fitted or top-dose-only effect; inactive = no such curve, though single readings can be large or run the other way; tested in HEK293T cells; also: % is scaled to controls: 0 for no effect and ±100 for the full control effect; nearly all actives have a fitted effect of over 45% in size; luciferase light after 4 h
NS1 function inh: qHTS Assay for Inhibitors of Influenza NS1 Protein Function | S. cerevisiae slowed by influenza A NS1, growth recovery by OD600 | Potency, µM (titrated, usually from 46.1 µM), for inactives: at the highest dose activity, positive = more growth | actives 0.4% (n = 270,000) | AID 2326, 2010; also: actives are rising curves; nearly all actives have a fitted effect of over 50% in size
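Growth recovery, yeast-based: influenza A NS1 expressed in S. cerevisiae causes slow growth, and suppressors are detected by OD600. The parent strain without NS1 is used as positive control.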
Cruzain noTriton: qHTS Assay for Promiscuous and Specific Inhibitors of Cruzain (without detergent); Cruzipain (Trypanosoma cruzi), P25779; purified cruzain, Z-FR-AMC fluorescence, no detergent; Potency, µM, for the others: max response, negative = inhibition, actives largely listed as inhibitors; actives 2.3% (n = 200,000); AID 1476, 2009; active = well fitted curve in the direction sought with a large enough effect; inconclusive = small, poorly fitted or top-dose-only effect, or another doubt; inactive = no such curve, though single readings can be large; an effect the other way counts as inactive or inconclusive;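 also: plate controls were enzyme without inhibitor for no effect and buffer without enzyme for full effect; nearly all actives have a fitted effect of over 40% in size; top concentration of the series not given in the record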
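Detergent-free condition (0.00005% Triton X-100) in acetate buffer pH 5.5 with DTT. 1.5 nM enzyme and compound were pre-mixed 15 min, then 2 uM Z-FR-AMC substrate added; reaction progress from fluorescence change between first and third reads (60 s).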
LASV entry inh: qHTS for Inhibitors of binding or entry into cells for Lassa Virus; Lassa virus pseudotype entry inhibition, cell reporter; control for the full effect not named in the record; actives 1.2% (n = 300,000); Potency, µM (highest dose often 37.9 µM), without a hit: at the top dose activity change, negative = inhibition, hits mostly inhibitors; active means well fitted inhibition curve with a large enough effect; inconclusive means small, poorly fitted or top-dose-only effect, or effect the other way; inactive means flat fitted curve, though single readings scatter; tested in HEK293 cells; also: % is scaled to controls: 0 for no effect and ±100 for the full control effect; nearly all actives have a fitted effect of over 50% in size; luciferase read-out
RE007 growth inh: qHTS Assay for Inhibitors of the HIV-1 protein Vpr | actives 0.21% (n = 360,000) | S. pombe RE007 Vpr strain, BacTiter-Glo ATP luminescence, 24 h; control for the full effect not named in the record | Potency, µM (highest dose often 92.2 µM), for the others: at the highest dose activity change, negative = less growth; active = well fitted falling curve with a large enough effect; inconclusive = small, poorly fitted or top-dose-only effect; inactive = no such curve, though single readings can be large or run the other way;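 also: % is scaled to controls: 0 for no effect and ±100 for the full control effect; nearly all actives have a fitted effect of over 50% in size; the assay follows cell death caused by Vpr and the record does not say whether a fall means rescue or toxicity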
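Fission yeast RE007 carrying one integrated HIV-1 vpr copy, seeded at OD 0.01 in PMG+AL medium with 23 nL pinned compound. Grown 24 h at 30 degrees; viability read by BacTiter-Glo luminescence after 5 min.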
MARV entry inh: qHTS for inhibitors of binding or entry into cells for Marburg Virus. AID 540276, 2011. actives 1.8% (n = 300,000). Potency, µM (series often up to 37.8 µM), for the others: at the top dose activity change, negative = inhibition, usual class: inhibitors. Marburg virus pseudotyped entry inhibition, cell reporter; control for the full effect not named in the record; about a third of the inactives were read at about 46 µM; active = well fitted inhibition curve with a large enough effect; inconclusive = small, poorly fitted or top-dose-only effect, or effect the other way; inactive = flat fitted curve, though single readings scatter; tested in HEK293 cells; about a fifth of its hits are not listed in these tables; also: % is scaled to controls: 0 for no effect and ±100 for the full control effect; luciferase read-out
An asterisk follows results filed as active; u = inconclusive; x = not tested or not shown; & = joins results of further samples; [ ] = another dose, or the depositor's remark. Unless noted, calls follow the shape of the dose curve; as a rule, active means well fitted rising curve with a large enough effect; inconclusive means small, poorly fitted or top-dose-only effect; inactive means no such curve, though single readings can be large or run the other way. Potency is read from the fitted curve at half-maximal effect. This is a random part of the collection; overall some 4.6% were active at least once.

SMILES	Cruzain Triton	SARS PLpro yeast	StopGo reporter	NS1 function inh	Cruzain noTriton	LASV entry inh	RE007 growth inh	MARV entry inh
CCC(C)(C)C(=O)Nc1nnc(CCc2ccccc2)s1	x	19%	40%[activator]	-5%	x	x	-1%	x
CCN(Cc1ccccc1)C(=O)C1CCN(S(=O)(=O)c2c(C)noc2/C=C/c2ccc(C)cc2)CC1	-2.2%	x	-20%	x	-1%	-22%[46.1 µM]	x	x
COc1ccc(NC(=O)c2csc3c2CCCCC3)c(OC)c1	x	-5%	16%	x	x	u	30%	-18%[46.1 µM]
CCOc1cc(N2CCOCC2)c(OCC)cc1NC(=O)CN1CCCC(C)C1 (stereo not drawn)	-1.8%	-7%	26%	-11%	2%	1%	17%	-19%
N#Cc1cc2ccccc2n2nnnc12	x	2%	6%	-10%	x	11%	-5%	-9%[46.1 µM]
CCOc1cccc(CN2CCN(c3cccc(C(F)(F)F)c3)CC2)c1O	-5.1%	1%	u	16%	-23%	-22%	2%	u
COc1ccc(CNc2oc(Cc3cccc4ccccc34)nc2C#N)cc1	-0.4%	-11%	-5%	-61%	-21%	18µM*	-8%	u
COC(=O)C1=C(C)N(C)C(=S)N(C)C1c1cccc(Br)c1 (stereo not drawn)	x	20%	-19%	-4%	x	1%	21%	u
COc1ccc(CCNC(=O)CN2CCN(S(=O)(=O)c3ccc(Cl)cc3)CC2)cc1OC	-2.6%	-1%	-22%	-3%	u	8%	1%	-14%
Cc1ccc(S(=O)(=O)N2CCN(C(=O)CSc3ncn[nH]3)CC2)cc1	x	-6%	-9%	x	x	1%	0%	u
COC(=O)c1cc(=O)n(-c2c(Cl)cc(C(F)(F)F)cc2Cl)[nH]1	x	1%	9%	12%	x	14%	1%	17%[46.1 µM]
Cc1ccc(S(=O)(=O)/N=C2/NC(=O)/C(=C/c3ccccn3)S2)cc1	x	-1%	8%	-2%	x	-12%[46.1 µM]	15%	-17%[46.1 µM]
COCc1cc(=O)[nH]c(Nc2nc(C)c3cc(OC)ccc3n2)n1	0.5%	4%	x	0%	8%	x	x	-1%
COc1ccc(-n2nnnc2-c2ccc(S(C)(=O)=O)cc2Cl)cc1	x	0%	-29%	3%	x	x	-17%	x
CN(C)S(=O)(=O)c1ccc(N2CCCC2)c(C(=O)Nc2nc3c(ccc4ccccc43)s2)c1	-4.2%	12%	-8%	14µM*	7.9µM*	u	7%	u
O=C(NCCN1CCCCC1)c1cc(COc2c(F)cccc2F)on1	x	2%	6%	25%	x	6%[46.1 µM]	3%	u
Cc1oc2c(CN3CCCC3)c(O)ccc2c(=O)c1-c1ccc(Cl)cc1	-3.0%	2%	0%	3%	1%	0%	9%	-6%&-6%
CCC(Oc1ccccc1)C(=O)N1CCN(c2ccccn2)CC1 (stereo not drawn)	1.7%	0%	-9%	7%	10%	3%	2%	-4%
NC(=O)c1c(NC(=O)c2cc3ccccc3o2)sc2c1CCC2	-2.0%	0%	-10%	-50%	u	u	-26%	u
CCOCCCn1c(=N)c(S(=O)(=O)c2ccc(C)cc2)cc2c(=O)n3cccc(C)c3nc21	-0.6%	x	4%	x	-10%	1%[46.1 µM]	x	4%[46.1 µM]
CCOc1c(Br)cc(CNc2ccc(N3CCN(C(C)=O)CC3)cc2)cc1OC	x	3%	-27%	-82%	x	x	-6%	x
Cc1ccccc1NC(=O)c1cccc(OCc2c(C)noc2C)c1	2.8%	1%	-10%	-75%	-4%	11%	-2%	-19%
O=C(CC(CC(=O)c1ccc(Cl)cc1)c1ccccc1C(=O)O)c1ccc(Cl)cc1	x	0%	-11%	15%	x	x	-19%	x
CCOC(=O)CCc1c(C)c2ccc(OCc3nn[nH]n3)c(C)c2oc1=O	-13%	10%	9%	1%	-1%	-20%	3%	-9%
O=C(NCc1ccco1)/C(=C/c1ccc(Br)cc1)NC(=O)c1ccco1	x	-10%	35%[activator]	0%	x	-23%[46.1 µM]	-1%	-20%[46.1 µM]
Cc1ccccc1OCCn1cc(C(=O)C2CCCCC2)c2ccccc21	4.0%	x	-11%	x	-13%	10%[46.1 µM]	x	13%[46.1 µM]
COc1ccc(C2C(C#N)=C(C)NC3=C2C(=O)CC(C)(C)C3)c(OC)c1 (stereo not drawn)	2.6%	1%	-22%	7%	4%	3%	-1%	-26%
Cc1ccc(S(=O)(=O)NCC(=O)Nc2ccc3c(c2)OCO3)cc1	x	-2%	20%	1%	x	3%[46.1 µM]	-16%	-11%[46.1 µM]
COc1ccccc1CNC(=O)CCNS(=O)(=O)c1ccc2c(c1)oc(=O)n2C	1.8%	-4%	-3%&-2%	5%	-2%	12%&18%[46.1 µM]	-2%	1%&-10%[46.1 µM]
Cc1ccc(CNC(=O)Cn2cc(C(=O)c3ccc(Cl)cc3)c(=O)c3ccc(C)nc32)cc1	-0.9%	x	-16%	x	5%	-19%[46.1 µM]	x	x
O=C(C1=NN(c2ccccc2)C2C(=O)N(c3ccccc3)C(=O)C12)c1ccccc1 (stereo not drawn)	-4.0%	-17%	-20%	u	-23%	9%	19%	u
COc1cc(NC(=O)Cc2ccc(S(=O)(=O)N3CCOCC3)s2)c(OC)cc1Cl	x	-3%	u	x	x	u	1%	u
CCOC(=O)C(=COC(=O)c1ccccc1)NC(=O)Cc1ccccc1	x	x	-2%	x	x	-18%	-2%	-10%
O=C(O)/C=C/c1cnn(-c2ccccc2)c1	x	0%	-67%	0%	x	2.8µM*	-3%	u
CCCOC(=O)CCCN1C(=O)/C(=C2\SC(=S)N(CCCC(=O)OCCC)C2=O)SC1=S	x	0%	-14%	0%	x	-26%[46.1 µM]	6%	0%[46.1 µM]
C=CCNCCCCOc1ccc(Br)cc1C	-1.9%	-10%	-16%	-6%	15%	0%	1%	u
Cc1cc(N/N=C/c2ccccc2Cl)nc(NCc2ccccc2)n1	-15%	-72%	u	-25%	11%	u	2%	u
O=S(=O)(Cc1noc(-c2ccccc2Cl)n1)c1ccccn1	x	0%	34%[activator]	3%	x	u	6%	u
CCOP(=O)(OCC)C1(O)C(=O)Nc2ccccc21 (stereo not drawn)	-3.4%	-9%	-9%	9%	-3%	15%	9%	u
COc1ccccc1/C=C(\C#N)C(=O)Nc1ccc(S(N)(=O)=O)cc1	x	-1%	-13%	x	x	3%	2%	10%

Ordered by length of the SMILES (smallest number first): some entries from above.
SMILES	Cruzain Triton	SARS PLpro yeast	StopGo reporter	NS1 function inh	Cruzain noTriton	LASV entry inh	RE007 growth inh	MARV entry inh
Cc1ccccc1NC(=O)c1cccc(OCc2c(C)noc2C)c1	2.8%	1%	-10%	-75%	-4%	11%	-2%	-19%
O=C(NCc1ccco1)/C(=C/c1ccc(Br)cc1)NC(=O)c1ccco1	x	-10%	35%[activator]	0%	x	-23%[46.1 µM]	-1%	-20%[46.1 µM]
COc1ccccc1CNC(=O)CCNS(=O)(=O)c1ccc2c(c1)oc(=O)n2C	1.8%	-4%	-3%&-2%	5%	-2%	12%&18%[46.1 µM]	-2%	1%&-10%[46.1 µM]
O=C(C1=NN(c2ccccc2)C2C(=O)N(c3ccccc3)C(=O)C12)c1ccccc1 (stereo not drawn)	-4.0%	-17%	-20%	u	-23%	9%	19%	u
Cc1ccc(CNC(=O)Cn2cc(C(=O)c3ccc(Cl)cc3)c(=O)c3ccc(C)nc32)cc1	-0.9%	x	-16%	x	5%	-19%[46.1 µM]	x	x

Additional records follow:
SMILES	Cruzain Triton	SARS PLpro yeast	StopGo reporter	NS1 function inh	Cruzain noTriton	LASV entry inh	RE007 growth inh	MARV entry inh
COc1cccc(C(=O)NCc2nnc(SCC(=O)Nc3nccs3)n2-c2ccccc2)c1	-1.4%	-20%	0%	-7%	-10%	x	1%	x
C#CCN1CC(C)/C(=N/O)CC1C (stereo not drawn)	1.0%	3%	-13%	-1%	-7%	12%	3%	0%
COc1ccc(C(=O)COC(=O)Cc2c[nH]c3ccccc23)c(OC)c1	x	-20%	-5%	x	x	3%	-7%	-3%
Cc1nn(CC(=O)c2ccc(Br)s2)c(C)c1[N+](=O)[O-]	x	0%	6%	-41%	x	x	-1%	x
O=C(O)CSc1nnc(-c2ccc(O)cc2)o1	-0.3%	x	-1%	x	-5%	u	x	u
CCc1ccc2occ(CC(=O)Nc3c(C(=O)Nc4ccc(Cl)cc4)oc4ccccc34)c2c1	-1.9%	x	10%	x	10µM*	6%[46.1 µM]	x	-4%[46.1 µM]
Cc1ccc(C(=O)NC(C)c2ccccc2)o1 (stereo not drawn)	1.2%	8%	7%	8%	-1%	1%	-19%	11%
Cc1ccc(C(=O)OCC(=O)NCc2cccs2)cc1S(=O)(=O)N1CCOCC1	x	-2%	-8%	x	x	-1%	14%	u
O=C(COc1cccc(NC(=O)c2cccc([N+](=O)[O-])c2)c1)c1ccc(Br)cc1	6.5%	u	20µM*	2%	u	22µM*	3%	u
Cc1nnc(SCC(=O)NCc2ccccc2Cl)[nH]c1=O	x	-3%	-14%	x	x	-2%[46.1 µM]	4%	10%[46.1 µM]
CN(c1ccccc1)S(=O)(=O)c1cccc(NC(=O)c2cncc(Br)c2)c1	x	-3%	-11%	-4%	x	x	11%	x
CC(C)(C)OC(=O)N/N=C\c1ccc(OC(=O)c2ccco2)cc1	x	-2%	-22%	x	x	u	-18%	u
CC(=O)Nc1ccc(-c2nc3ccccc3c(=O)o2)cc1	x	5%	17%	1%	x	2%[46.1 µM]	6%	-6%[46.1 µM]
CCn1c(Cc2ccccc2)nnc1SCC(=O)Nc1ccc(OC)cc1	-2.7%	8%	17%	-19%	12%	u	24%	24%
COc1ccc(OCC(=O)NC2CCCN(Cc3ccc(Cl)cc3)C2)cc1 (stereo not drawn)	x	-8%	-12%	-5%	x	x	4%	x
CC(C)N(Cc1ccccc1)C(=O)COC(=O)C1CCN(c2ccc(C(F)(F)F)cn2)CC1	x	3%	-26%	x	x	-18%	5%	-18%
